GALR2 ag: activates the human galanin receptor 2; GALR2-expressing cells, agonist activation read-out; activation, %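 (tested at 5 µM)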; 0.48% of 140,000 active; AID 803;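 active means above mean plus 3 SD of all compounds, about 5% in these data, not always enough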;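 further: 0% = vehicle buffer wells and 100% = reference agonist at full effect; tested in CHO reporter cells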
Target sequence (O43603 whole entry, looked up): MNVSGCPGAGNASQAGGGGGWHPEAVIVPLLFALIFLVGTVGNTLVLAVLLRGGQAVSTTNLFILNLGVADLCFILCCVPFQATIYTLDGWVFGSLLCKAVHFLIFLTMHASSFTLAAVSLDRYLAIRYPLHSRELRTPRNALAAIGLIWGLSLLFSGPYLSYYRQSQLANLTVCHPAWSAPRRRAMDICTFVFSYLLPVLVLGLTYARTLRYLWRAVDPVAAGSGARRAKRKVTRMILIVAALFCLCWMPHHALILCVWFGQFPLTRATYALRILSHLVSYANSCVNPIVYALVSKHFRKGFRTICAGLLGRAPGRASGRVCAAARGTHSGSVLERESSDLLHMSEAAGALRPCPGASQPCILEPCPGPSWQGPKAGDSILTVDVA
HSV replic up: increases HSV replication in cells | maximum fold increase | 0.005% of 220,000 active | HSV replication augmentation in cells, fold increase;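 active means peak rise of 1.5-fold or more in the series; inconclusive means self-fluorescent or not available for retest; tested in PC3 cells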;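 further: first round at 10 µM; read as green reporter fluorescence; hits show the peak of a series up to 25 µM; 1 = signal of infected wells without compound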
RGS16-Gao: RGS16-Galphao interaction regulator (human); O15492+P09471; bead-based flow cytometry RGS16-Galphao binding, fluorescence; actives lie on both sides; binding response (% of control), % at 10 µM; 0.38% of 220,000 active; AID 1441;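 active means below 25% or above 175%, edge rows of some plates excepted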;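 further: Galphao activated by GDP with aluminum fluoride before binding; 100% = wells without compound and 0% = beads without RGS; some results beyond the cut were filed as inactive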
Target sequence (O15492 whole entry, looked up): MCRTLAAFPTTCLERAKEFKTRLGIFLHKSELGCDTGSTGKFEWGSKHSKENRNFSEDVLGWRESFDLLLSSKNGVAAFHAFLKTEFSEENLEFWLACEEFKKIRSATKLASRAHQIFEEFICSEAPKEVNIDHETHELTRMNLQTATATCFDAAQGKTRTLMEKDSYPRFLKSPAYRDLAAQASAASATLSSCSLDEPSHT
Target sequence (P09471 whole entry, looked up): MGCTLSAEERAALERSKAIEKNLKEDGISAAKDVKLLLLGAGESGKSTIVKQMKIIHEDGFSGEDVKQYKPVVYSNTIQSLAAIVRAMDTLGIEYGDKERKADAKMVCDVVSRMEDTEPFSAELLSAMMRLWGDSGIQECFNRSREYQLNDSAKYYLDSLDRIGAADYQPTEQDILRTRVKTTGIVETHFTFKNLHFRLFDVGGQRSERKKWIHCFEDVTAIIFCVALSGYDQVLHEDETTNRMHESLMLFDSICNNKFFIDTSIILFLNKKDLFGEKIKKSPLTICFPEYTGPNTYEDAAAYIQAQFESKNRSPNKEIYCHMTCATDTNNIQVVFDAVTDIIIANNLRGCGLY
PKD1 kinase inh: blocks activity of human protein kinase D1. PKD1 kinase fluorescence polarization assay. inhibition, %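 (about 10 µM by stock and volumes)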. 0.056% of 200,000 active. AID 797;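 active means inhibition of 50% or more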;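 further: controls were vehicle for no effect and a reference inhibitor for full effect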
Insulin prom inh: TRM-6 insulin promoter activity inhibition | TRM-6 cells (human fetal islet line), insulin promoter-eGFP reporter, imaging; reporter expression induced with tamoxifen | inhibition, % at 2 µM | 0.9% of 130,000 active | AID 1273;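 active means inhibition above the mean plus 3 SD, with well images judged a real hit on visual review, cut at about 60% in these data, passing the limit was not always enough; inconclusive means inhibition over the cutoff but images rejected on review; inactive means inhibition not above the cutoff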
Insulin prom inh cell count: further read-out of Insulin prom inh, marked with its call; normalized cell count, %; measured here: cell count, toxicity; reference of the scale not given here;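 cells exposed to compound for 48 h; stained nuclei by imaging scaled within each plate; lower means fewer cells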
HSV replic up primary fold: second read-out of HSV replic up, no call of its own (marks repeat the call); fold increase; compound at 10 µM; measured here: primary screen fold increase 10 uM; tested in PC3 cells;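 GFP signal in the first replicate; 1 = infected wells without compound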
Starred values were filed as active, the others as inactive.

Results for Cc1cc(NC(=O)C2CC(c3ccc(F)cc3)=NO2)n(-c2ccccc2)n1 (configuration not stated) ?
GALR2 ag: -0.6; HSV replic up: inactive; RGS16-Gao: 100; PKD1 kinase inh: -7; HSV replic up primary fold: 0.89

How did COc1ccc(C(=O)NNC(=O)CSc2nnc(COc3ccc4ccccc4c3)n2C)cc1 do in these assays?
GALR2 ag: -2.1; HSV replic up: inactive; RGS16-Gao: 104; PKD1 kinase inh: -8; HSV replic up primary fold: 1.1

How did CCN(CC)c1ccc2cc(C(C)=O)c(=O)oc2c1 do in these assays?
GALR2 ag: 2.7; HSV replic up: inconclusive; RGS16-Gao: 137; PKD1 kinase inh: 2; Insulin prom inh: 18; Insulin prom inh cell count: 99

How did COc1cccc(N/C(SC)=C(/C#N)C(N)=O)c1 do in these assays?
GALR2 ag: -1.2; HSV replic up: inactive; RGS16-Gao: 102; PKD1 kinase inh: 3; Insulin prom inh: 37; Insulin prom inh cell count: 148; HSV replic up primary fold: 0.85

Results for COc1ccc(OC)c(/C=N\NC(=O)CC(=O)NCCc2ccccc2)c1 ?
HSV replic up: inactive; RGS16-Gao: 135; PKD1 kinase inh: -2; Insulin prom inh: 40; Insulin prom inh cell count: 98; HSV replic up primary fold: 1

How did CCCc1cc(-c2nc(-c3ccc(C)cc3)cs2)ccn1 do in these assays?
GALR2 ag: 1.5; HSV replic up: inactive; RGS16-Gao: 99; PKD1 kinase inh: -8; Insulin prom inh: 0; Insulin prom inh cell count: 125; HSV replic up primary fold: 0.9

How did COc1ccc2c(c1)Cc1sc(NC(=O)c3cccnc3)nc1-2 do in these assays?
HSV replic up: inactive; RGS16-Gao: 102; PKD1 kinase inh: -4; Insulin prom inh: 20; Insulin prom inh cell count: 178; HSV replic up primary fold: 0.95

Results for COc1ccc(C(C(=O)NC2CCCC2)N(C(=O)c2snc(-c3ccc(F)cc3)c2N)c2ccc(F)cc2)cc1 (configuration not stated) ?
GALR2 ag: -1.9; HSV replic up: inactive; RGS16-Gao: 107; PKD1 kinase inh: -10; HSV replic up primary fold: 0.99

Results for Cc1ncc(CN2CCN(CCC(C)C)C(CCO)C2)s1 (configuration not stated) ?
HSV replic up: inactive; RGS16-Gao: 103; PKD1 kinase inh: -8; HSV replic up primary fold: 0.85

Results for Cc1cc(C)n(C(=O)c2sc3cc(F)ccc3c2Cl)n1 ?
GALR2 ag: -1.3; HSV replic up: inactive; RGS16-Gao: 106; PKD1 kinase inh: 2; Insulin prom inh: 22; Insulin prom inh cell count: 83; HSV replic up primary fold: 0.96

Results for O=C(Cc1ccccc1F)Nc1nc2ccccc2[nH]1 ?
HSV replic up: inactive; RGS16-Gao: 99; PKD1 kinase inh: -5; HSV replic up primary fold: 0.96

Results for CC(C)C1Cc2[nH]c(=O)c(C(=O)O)cc2CO1 (configuration not stated) ?
GALR2 ag: 0.0; HSV replic up: inactive; RGS16-Gao: 101; PKD1 kinase inh: 8; Insulin prom inh: -106; Insulin prom inh cell count: 41; HSV replic up primary fold: 1.1

Compounds above with fluorine, in the order listed:
Results for Cc1cc(NC(=O)C2CC(c3ccc(F)cc3)=NO2)n(-c2ccccc2)n1 (configuration not stated) ?
GALR2 ag: -0.6; HSV replic up: inactive; RGS16-Gao: 100; PKD1 kinase inh: -7; HSV replic up primary fold: 0.89

Results for COc1ccc(C(C(=O)NC2CCCC2)N(C(=O)c2snc(-c3ccc(F)cc3)c2N)c2ccc(F)cc2)cc1 (configuration not stated) ?
GALR2 ag: -1.9; HSV replic up: inactive; RGS16-Gao: 107; PKD1 kinase inh: -10; HSV replic up primary fold: 0.99

Results for Cc1cc(C)n(C(=O)c2sc3cc(F)ccc3c2Cl)n1 ?
GALR2 ag: -1.3; HSV replic up: inactive; RGS16-Gao: 106; PKD1 kinase inh: 2; Insulin prom inh: 22; Insulin prom inh cell count: 83; HSV replic up primary fold: 0.96

Results for O=C(Cc1ccccc1F)Nc1nc2ccccc2[nH]1 ?
HSV replic up: inactive; RGS16-Gao: 99; PKD1 kinase inh: -5; HSV replic up primary fold: 0.96

Next part
How did COc1ccc(CC(=O)Nc2cccc3ncccc23)cc1OC do in these assays?
HSV replic up: inactive; RGS16-Gao: 96; PKD1 kinase inh: -3; Insulin prom inh: -78; Insulin prom inh cell count: 71; HSV replic up primary fold: 0.88

How did Cc1cc(O)ccc1NC1=CC(=O)CC(C)(C)C1 do in these assays?
GALR2 ag: -0.2; HSV replic up: inactive; RGS16-Gao: 50; PKD1 kinase inh: -17; Insulin prom inh: -31; Insulin prom inh cell count: 91; HSV replic up primary fold: 1

Results for O=S1(=O)N=C2CCCN2C(c2ccc(F)cc2)N1 (configuration not stated) ?
GALR2 ag: -0.1; HSV replic up: inactive; RGS16-Gao: 101; PKD1 kinase inh: 4; Insulin prom inh: -36; Insulin prom inh cell count: 64; HSV replic up primary fold: 1

What do the screens show for `COc1cc(C(=O)OCC(=O)Nc2sccc2C(N)=O)cc(OC)c1OC`?
HSV replic up: inactive; RGS16-Gao: 101; PKD1 kinase inh: -1; HSV replic up primary fold: 0.81

How did Cc1ccccc1CSc1nnc(NC(=O)C2COc3ccccc3O2)s1 (configuration not stated) do in these assays?
GALR2 ag: -1.2; HSV replic up: inactive; RGS16-Gao: 98; PKD1 kinase inh: -7; HSV replic up primary fold: 0.91

What do the screens show for `COC(=O)c1ccc(NC(=O)c2ccccc2NS(=O)(=O)c2ccccc2)cc1`?
GALR2 ag: -1.9; HSV replic up: inactive; RGS16-Gao: 98; PKD1 kinase inh: -1; Insulin prom inh: -13; Insulin prom inh cell count: 85; HSV replic up primary fold: 0.98

How did O=C1CN(C(=O)COC(=O)CCCOc2ccccc2)c2ccccc2N1 do in these assays?
RGS16-Gao: 94; PKD1 kinase inh: -8; Insulin prom inh: -86; Insulin prom inh cell count: 39

What do the screens show for `Cc1ccc(-c2cc(-c3ccc(C)o3)nc(N)c2C#N)cc1`?
GALR2 ag: 7.2; HSV replic up: inactive; RGS16-Gao: 102; PKD1 kinase inh: -13; Insulin prom inh: -52; Insulin prom inh cell count: 104; HSV replic up primary fold: 1.2

What do the screens show for `COc1ccc(N2C(=O)C3C(C2=O)C3(c2ccccc2)c2ccccc2)cc1` (configuration not stated)?
HSV replic up: inactive; RGS16-Gao: 104; HSV replic up primary fold: 0.75

Results for N#CC1=C(N)N2C(=C(C#N)C13CCN(Cc1ccccc1)CC3)Nc1ccccc12 ?
GALR2 ag: 0.1; HSV replic up: inactive; RGS16-Gao: 103; PKD1 kinase inh: -3; Insulin prom inh: 27; Insulin prom inh cell count: 132; HSV replic up primary fold: 0.91

How did CCN(CC(=O)NC1CCS(=O)(=O)C1)C(=O)C(c1ccccc1)c1ccccc1 (configuration not stated) do in these assays?
GALR2 ag: -1.5; HSV replic up: inactive; RGS16-Gao: 82; PKD1 kinase inh: -7; Insulin prom inh: -200; Insulin prom inh cell count: 123; HSV replic up primary fold: 0.81

What do the screens show for `CC(C)Nc1nc(NC(C)C)nc(Oc2ccc(=O)n(C)n2)n1`?
HSV replic up: inactive; RGS16-Gao: 94; PKD1 kinase inh: -2; HSV replic up primary fold: 0.95

What do the screens show for `Cc1ccc2sc(NNC(=O)C3=COCCO3)nc2c1C`?
HSV replic up: inactive; RGS16-Gao: 107; PKD1 kinase inh: 4; Insulin prom inh: 33; Insulin prom inh cell count: 98; HSV replic up primary fold: 0.95

Results for COc1cccc(OCCCCN2CCCCC2)c1 ?
GALR2 ag: -2.9; HSV replic up: inactive; RGS16-Gao: 104; PKD1 kinase inh: -9; HSV replic up primary fold: 1.1

What do the screens show for `CCn1c(SCCC#N)nnc1-c1ccncc1`?
GALR2 ag: -1.4; HSV replic up: inactive; RGS16-Gao: 100; PKD1 kinase inh: -7; Insulin prom inh: 50; Insulin prom inh cell count: 152; HSV replic up primary fold: 0.81

How did CCOC(=O)c1nnc(-c2ccccc2)nc1Oc1ccccc1Cl do in these assays?
GALR2 ag: -1.4; HSV replic up: inactive; RGS16-Gao: 101; PKD1 kinase inh: 3; Insulin prom inh: -31; Insulin prom inh cell count: 122; HSV replic up primary fold: 0.86

How did O=C(Nc1cccc(Cl)c1)Nc1nc(-c2ccccc2)cs1 do in these assays?
HSV replic up: inactive; RGS16-Gao: 101; PKD1 kinase inh: 0; Insulin prom inh: 47; Insulin prom inh cell count: 87; HSV replic up primary fold: 0.89

What do the screens show for `CCOC(=O)C(=O)Nc1nc(-c2ccccc2)c(CC)s1`?
GALR2 ag: -1.0; RGS16-Gao: 103; PKD1 kinase inh: -2; Insulin prom inh: 7; Insulin prom inh cell count: 167

Results for c1ccc(-c2nnc(-c3cccc(-c4nnc(-c5ccccc5)o4)c3)o2)cc1 ?
GALR2 ag: 0.3; PKD1 kinase inh: -4; Insulin prom inh: -110; Insulin prom inh cell count: 98

What do the screens show for `Cc1ccc(OCCCCn2c(CO)nc3ccccc32)cc1`?
RGS16-Gao: 103; PKD1 kinase inh: -6; Insulin prom inh: -54; Insulin prom inh cell count: 103

How did Cc1ccc(Cn2c(CN3CCOCC3)nc3c2c(=O)[nH]c(=O)n3C)cc1 do in these assays?
GALR2 ag: -2.0; HSV replic up: inactive; RGS16-Gao: 90; PKD1 kinase inh: 3; Insulin prom inh: 36; Insulin prom inh cell count: 130; HSV replic up primary fold: 1.4

How did Cc1ccccc1-n1nc(-c2cccnc2)cc1C(=O)N/N=C/c1ccncc1 do in these assays?
HSV replic up: inactive; RGS16-Gao: 104; PKD1 kinase inh: -3; HSV replic up primary fold: 0.99

What do the screens show for `CCOC(=O)c1cnc(Nc2nc3ccccc3o2)nc1C`?
GALR2 ag: -0.8; HSV replic up: inactive; RGS16-Gao: 97; PKD1 kinase inh: -8; Insulin prom inh: -4; Insulin prom inh cell count: 91; HSV replic up primary fold: 0.94

How did COc1ccc(CNC(=O)C2CC(c3ccccc3[N+](=O)[O-])=NO2)cc1 (configuration not stated) do in these assays?
GALR2 ag: -1.7; HSV replic up: inactive; RGS16-Gao: 99; PKD1 kinase inh: 0; Insulin prom inh: 17; Insulin prom inh cell count: 88; HSV replic up primary fold: 0.93

What do the screens show for `COc1ccc(-c2nc(CS(=O)CC(=O)NCC3CCCO3)c(C)o2)cc1` (configuration not stated)?
GALR2 ag: -3.0; HSV replic up: inactive; RGS16-Gao: 103; PKD1 kinase inh: 3; HSV replic up primary fold: 1

How did O=C(CSc1ccccc1)NN1C(=O)c2ccccc2C1=O do in these assays?
HSV replic up: inactive; RGS16-Gao: 78; PKD1 kinase inh: -11; HSV replic up primary fold: 1

Results for COc1cc(/C=N/NC(=O)C2=NNC(=O)C2C)ccc1O (configuration not stated) ?
HSV replic up: inactive; RGS16-Gao: 99; HSV replic up primary fold: 1

How did COc1cccc(NC(=O)Cc2nc(-c3ccccc3)sc2-c2ccc(C)cc2)c1 do in these assays?
GALR2 ag: -2.9; HSV replic up: inactive; RGS16-Gao: 119; PKD1 kinase inh: -4; Insulin prom inh: 0; Insulin prom inh cell count: 63; HSV replic up primary fold: 1

Results for O=C(Nc1ccccc1C(=O)NC(Cc1ccccc1)C(=O)NC1CCCCC1)c1ccccc1 (configuration not stated) ?
GALR2 ag: -0.3; HSV replic up: inactive; RGS16-Gao: 100; PKD1 kinase inh: 1; Insulin prom inh: -47; Insulin prom inh cell count: 99; HSV replic up primary fold: 0.81

What do the screens show for `COC(=O)/C(=C/c1ccco1)NC(=O)c1ccccc1`?
GALR2 ag: -1.3; HSV replic up: inactive; RGS16-Gao: 108; PKD1 kinase inh: -5; Insulin prom inh: -3; Insulin prom inh cell count: 99; HSV replic up primary fold: 1.1

Results for O=C(Nc1cccc(F)c1)c1cc(S(=O)(=O)N2CCC(C(=O)O)CC2)ccc1F ?
GALR2 ag: 0.0; RGS16-Gao: 104; PKD1 kinase inh: 2; Insulin prom inh: -57; Insulin prom inh cell count: 73

What do the screens show for `Cc1[nH]c2ccccc2c1CCN(Cc1cccs1)C(=S)NC(C)(C)C`?
HSV replic up: inactive; RGS16-Gao: 108; PKD1 kinase inh: -7; Insulin prom inh: -27; Insulin prom inh cell count: 193; HSV replic up primary fold: 0.91

How did COc1ccc(Br)cc1CNC(=O)C1CCCN(c2nc3ccccc3o2)C1 (configuration not stated) do in these assays?
GALR2 ag: -4.2; HSV replic up: inactive; RGS16-Gao: 101; PKD1 kinase inh: -14; HSV replic up primary fold: 0.78

What do the screens show for `Cc1cccc(-n2c(SCC(=O)O)nc3sc4c(c3c2=O)CCCC4)c1`?
HSV replic up: inactive; RGS16-Gao: 108; PKD1 kinase inh: -4; Insulin prom inh: 43; Insulin prom inh cell count: 84; HSV replic up primary fold: 0.92

Results for O=C(COC(=O)/C=C/c1nc2ccccc2s1)Nc1cccc2ccccc12 ?
GALR2 ag: -1.8; HSV replic up: inactive; RGS16-Gao: 101; PKD1 kinase inh: -7; Insulin prom inh: 8; Insulin prom inh cell count: 96; HSV replic up primary fold: 0.92

Not a hit list; overall some 1.3% were active at least once.
